Screening results as filed in PubChem.
KCNQ2 pot: enhances the rat KCNQ2 potassium channel | O88943 | CHO-K1 KCNQ2, FluxOR thallium flux fluorescence; stronger effect = higher value | B-score at 10 µM | 0.54% of 310,000 active | AID 2239;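 active means fluorescence ratio B-score at least 3 SD of library B-scores, with initial fluorescence B-score within 3 SD, cut at about 5.3 in these data; same plate scores as AID 2156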;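 further: B-score of peak minus minimum over baseline fluorescence ratio after K+ and Tl+ stimulus; positive B-score means potentiation of KCNQ2 with more thallium influx and brighter signal; only the inactives scoring about 0 or higher are listed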
Target sequence (O88943 whole entry, looked up): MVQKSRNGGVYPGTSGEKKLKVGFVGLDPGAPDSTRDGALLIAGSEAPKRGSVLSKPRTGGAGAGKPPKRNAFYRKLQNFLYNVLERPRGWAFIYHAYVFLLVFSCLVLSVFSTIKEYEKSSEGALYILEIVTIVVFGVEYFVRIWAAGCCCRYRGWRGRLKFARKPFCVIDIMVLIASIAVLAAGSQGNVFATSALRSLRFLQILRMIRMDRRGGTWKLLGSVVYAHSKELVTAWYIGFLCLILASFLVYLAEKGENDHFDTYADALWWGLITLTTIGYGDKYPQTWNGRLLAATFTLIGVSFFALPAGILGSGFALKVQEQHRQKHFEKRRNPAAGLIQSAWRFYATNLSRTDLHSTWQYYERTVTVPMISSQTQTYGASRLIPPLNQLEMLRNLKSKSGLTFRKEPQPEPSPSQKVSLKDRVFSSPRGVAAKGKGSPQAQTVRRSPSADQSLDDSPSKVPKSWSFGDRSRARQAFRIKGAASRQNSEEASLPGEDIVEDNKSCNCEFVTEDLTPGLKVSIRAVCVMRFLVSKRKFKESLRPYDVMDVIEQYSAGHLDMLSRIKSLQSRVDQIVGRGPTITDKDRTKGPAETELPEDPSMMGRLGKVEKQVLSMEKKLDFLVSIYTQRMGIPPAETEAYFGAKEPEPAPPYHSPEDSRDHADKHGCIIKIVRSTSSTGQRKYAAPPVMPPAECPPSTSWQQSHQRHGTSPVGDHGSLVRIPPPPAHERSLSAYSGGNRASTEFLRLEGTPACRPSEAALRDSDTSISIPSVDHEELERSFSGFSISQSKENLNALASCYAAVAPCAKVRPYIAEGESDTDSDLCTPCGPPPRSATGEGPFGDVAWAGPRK
KCNQ2 pot baseline: second read-out of KCNQ2 pot, no call of its own (marks repeat the call); B-score; compound at 10 µM; measured here: initial fluorescence intensity artifact check;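 brightness before thallium and not channel activity; 0 = typical well and far values either way flag optical interference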
* hit, by the source's call.

KCNQ2 pot baseline	KCNQ2 pot	SMILES
-0.89	1	COC(=O)c1sccc1NS(=O)(=O)c1ccc(OC)cc1
0.07	0.48	Cc1ccc(-n2c(SCC(=O)N3CCOCC3)nnc2-c2ccncc2)cc1C
-0.05	0.49	O=C(NC1CCN(C(=O)c2cccc([N+](=O)[O-])c2)CC1)c1ccccc1
0.47	0.76	CNC(=O)Cn1nc(C)c2ccccc2c1=O
2	2.1	CC1CCCCC1NC(=O)c1ccc(S(=O)(=O)NCC2CCCO2)cc1 (configuration not stated)
1.2	1.2	Cc1ccccc1-c1nc(CS(=O)CC(=O)NC2CC2)c(C)o1 (configuration not stated)
0.39	1.4	CN(C)c1ccc(C(=O)/C=C/c2ccco2)cc1
-0.12	2	COc1ccccc1-n1cc(CN2CCN(CC=C(C)C)C(CCO)C2)cn1 (configuration not stated)
-0.3	1.3	CCOc1ccc2nc(NC(=O)c3cccc(-c4cc5ccccc5oc4=O)c3)sc2c1
-2.4	1.3	O=C(N1CCCC1)C12CCC3CC(CC(C3)C1)C2
-3.4	0.16	Cc1cc(C)n(C(=O)c2cc3c(s2)CCCC3)n1
-1.4	0.06	COC(=O)Cc1cc(=O)[nH]c(/N=C(\N)Nc2ccccc2C)n1
-0.77	2.5	CC(C)(C)NC(=O)CN(C(=O)CS(=O)CC(=O)Nc1ccc(F)cc1)c1ccc(F)c(Cl)c1 (configuration not stated)
0.04	1.3	O=C(Nc1ccnc(-c2cccnc2)n1)c1ccc(Cl)c(Cl)c1
0.33	0.64	O=C(Nc1ccccc1C(F)(F)F)N1CCN(c2ccc3nncn3n2)CC1
1.6	0.36	Cc1ccc(C(=O)Nc2ccncc2)o1
-2.3	0.06	Cc1cccc(NC(=O)c2ccccc2OCC(=O)N2CCOCC2)c1C
0.66	1.4	CN(CCC#N)C(=O)COC(=O)c1nn(-c2ccccc2)c(=O)c2ccccc12
0.03	0.06	Cc1ccc(CS(=O)(=O)CCC(=O)NCCN2CCCCC2C)cc1 (configuration not stated)
-0.34	1.3	O=C(Cc1ccccc1)NNC(=O)Nc1ccccc1

Further records follow.
KCNQ2 pot baseline	KCNQ2 pot	SMILES
-0.05	0.05	CCOC(=O)c1sc(-c2ccccc2)cc1N
-0.07	0.92	C=CCn1c(-c2cccs2)nc2nc3ccccc3nc21
-1	1.5	Cc1nn2cc(-c3ccc(Cl)cc3)nc2s1
-0.46	1.1	O=C(CCNS(=O)(=O)c1ccccc1)Nc1ccccc1
1	0.47	COc1cccc(CNC(=O)Cn2ncc3c(=O)oc4ccccc4c32)c1
0.26	1	CCOC(=O)C1CCN(C(=O)Nc2ccc3nc(C)c(C)nc3c2)CC1
1.2	0.21	Nc1c(-c2ccccc2)cnn1-c1cccc(Cl)c1
-3.8	1.2	COC(=O)c1sccc1NC(=O)Cc1ccc(OC)c(OC)c1
0.92	0.66	CC(C)Cn1c(N)c(C(=O)CSc2nnnn2C)c(=O)n(C)c1=O
1.7	1.7	CCN(CC)CCCN=Cc1c(O)n(-c2cccc(C)c2)c(=O)c2ccccc12
-0.25	0.69	Cc1noc(C)c1CSc1nnc(-c2c[nH]c3ccccc23)n1-c1ccc(Cl)cc1
1.6	0.62	CCOc1ccc2nc(Cl)sc2c1
-2.9	1.5	COc1ccc(OC)c2nc3c(cc12)CCC3
-0.9	0.15	N#Cc1c(N)c(C#N)c(-c2ccc(O)cc2)c2c1CCCC2
0.08	0.06	Cc1ccc(NC(=S)NNC(=O)c2cn(C)nc2C)cc1
0.65	0.03	CC(OC(=O)c1ccco1)C(=O)NCc1cccs1 (configuration not stated)
-1.7	1.4	NS(=O)(=O)c1ccc(NC(=O)COC(=O)C23CC4CC(CC(C4)C2)C3)cc1
2.3	0.59	O=C(CS(=O)(=O)c1ccc2ccccc2c1)N1CCCCCC1
1.6	0.24	COc1cccc(NC(=O)Nc2nnc(CC(=O)Nc3ccccc3)s2)c1
0.16	1.7	COc1ccc(-n2c(Cc3cccn3C)nnc2SCC(=O)Nc2ccc3c(c2)OCO3)cc1

Compounds above with an aryl thioether with sulfur outside any ring:
KCNQ2 pot baseline	KCNQ2 pot	SMILES
0.07	0.48	Cc1ccc(-n2c(SCC(=O)N3CCOCC3)nnc2-c2ccncc2)cc1C
0.92	0.66	CC(C)Cn1c(N)c(C(=O)CSc2nnnn2C)c(=O)n(C)c1=O
-0.25	0.69	Cc1noc(C)c1CSc1nnc(-c2c[nH]c3ccccc23)n1-c1ccc(Cl)cc1
0.16	1.7	COc1ccc(-n2c(Cc3cccn3C)nnc2SCC(=O)Nc2ccc3c(c2)OCO3)cc1

New compounds follow:
KCNQ2 pot baseline	KCNQ2 pot	SMILES
0.79	1.1	COc1ccc(CN(CCNC(=O)CCCCC(=O)NCCN(Cc2ccc(OC)cc2)C(C)C)C(C)C)cc1
2.7	0.01	COc1ccc(-n2ncc3c2CC(C)(C)CC3NC(=O)c2ccc(OC)o2)cc1 (configuration not stated)
1.7	0.83	O=C(O)CSc1nc2ccccc2s1
0.19	0.52	Cc1ccc(S(=O)(=O)NC(=O)Nc2nccs2)cc1
0.59	0.47	Cc1oc2cc3oc(=O)c(CCC(=O)NCCN4CCOCC4)c(C)c3cc2c1C
0.54	0.7	Nc1nc(SCC(=O)NCc2ccccc2Cl)[nH]c(=O)c1NC(=O)c1ccccc1F
-0.1	0.27	O=C(c1cccc(S(=O)(=O)N2CCOCC2)c1)N1CCN(Cc2ccc3c(c2)OCO3)CC1
0.05	0.01	CN(CC(=O)NCc1ccc2c(c1)OCO2)S(=O)(=O)c1ccc(F)cc1
0.2	0.89	CCS(=O)(=O)c1nc(S(=O)(=O)c2ccc(C)cc2)c(N2CCC3(CC2)OCCO3)s1
0.09	0.37	O=C(C1CCCCC1)N1CC(=O)N2CCc3ccccc3C2C1 (configuration not stated)
-0.27	0.57	CCc1nc(Nc2ccc3c(c2)OCO3)c2oc3ccccc3c2n1
0.23	1.5	OC[C@H]1O[C@@H](n2cnc3c(Nc4ccccc4)ncnc32)[C@H](O)[C@@H]1O
1.2	1.3	CN(C)Cc1c(C(=O)N/N=C/c2cccnc2)nnn1-c1nonc1N
-0.74	0.02	O=C(CCc1ccccc1)NNC(=O)COc1ccc([N+](=O)[O-])cc1
0.57	0.58	COc1cc(CNn2cn[nH]c2=S)cc(Cl)c1OCc1ccc(F)cc1
-2.7	0.07	O=C(NCC1(c2ccccc2)CCCC1)c1ccccc1
0.27	0.28	O=c1onc(-c2ccc(Cl)cc2Cl)n1-c1cccnc1
1.6	0.44	COc1ccc(CNC(=O)CCCC(=O)Nc2cccc(Br)c2)cc1
-0.48	0.65	C[C@]12CCC3C(CC=C4C[C@@H](O)CC[C@@]43C)C1CCC2[C@]1(C)CCC(=O)O1 (some centres not stated)
1.1	0.25	O=C(COc1ncnc2cc([N+](=O)[O-])ccc12)NC1CCCCC1

(next part)
KCNQ2 pot baseline	KCNQ2 pot	SMILES
2.4	0.1	Cc1ccc2c(C)nc(N/C(N)=N/S(=O)(=O)c3ccc([N+](=O)[O-])cc3)nc2c1
0.61	1	C[C@H]1CN=C2N(CCNC(=O)CCC3CCCCC3)[C@H](Cc3ccc(O)cc3)CN21
-1.7	0.49	COc1ccc(OC)c(NC(=O)Cn2c(CCC(=O)O)ccc2-c2cccs2)c1
-0.64	0.96	O=C(O)/C=C/C(=O)N1CCN(C(=O)/C=C/C(=O)O)CC1
-0.18	2.4	O=C(Cc1csc(NC(=O)Nc2cccc(Cl)c2)n1)NCc1ccccn1
1	0.87	Cc1ccc(C(=O)NCCCNC(=O)Cc2ccccc2)cn1
-0.83	1.3	O=C(CCc1nc(-c2ccccc2F)no1)NCCN1CCN(Cc2ccccc2)CC1
1.6	0.04	COC(=O)c1ccc(NC(=O)CC2C(=O)N(C)C(=S)N2Cc2ccc(S(N)(=O)=O)cc2)cc1 (configuration not stated)
0.54	0.28	COc1ccc2cc(C(=O)C3CCCN(C(=O)c4cnccn4)C3)ccc2c1 (configuration not stated)
0.89	0.5	O=C(/C=C/Nc1ccc(S(=O)(=O)Nc2ncccn2)cc1)c1ccc2ccccc2c1
-0.27	0.1	COCCCNC(=S)Nc1cc2oc3ccccc3c2cc1OC
0.23	0.03	Cc1[nH][nH]c(=O)c1[C@@H](c1ccccc1[N+](=O)[O-])C(C#N)C#N
0.03	0.26	Cn1ncc(Br)c1C(=O)N1CCc2ccccc21
-0.19	0.86	COc1cc2ncnc(NCc3cccs3)c2cc1OC
-0.09	0.91	CC(C)[C@H](NC(=O)OC(C)(C)C)c1nnc(S(=O)(=O)Cc2c(F)cccc2Cl)o1
1.3	0.58	COC(=O)c1ccc(Oc2nc3ccccc3n3c(C)nnc23)cc1
-1.7	0.47	CCCCc1cc(=O)oc2c(CN3CCCC3)c(O)ccc12
0.33	0.32	CCOC(=O)CCc1c(C)c2ccc(O)cc2oc1=O
0.07	1.4	CC(/C=C/c1ccc(OCc2ccccc2)cc1)=N\O
-0.02	0.03	O=C(/C=C/c1ccc(F)cc1)N1CCN(c2ncccn2)CC1

Four of the entries above in order of the KCNQ2 pot baseline value, lowest first:
KCNQ2 pot baseline	KCNQ2 pot	SMILES
-1.7	0.47	CCCCc1cc(=O)oc2c(CN3CCCC3)c(O)ccc12
-0.09	0.91	CC(C)[C@H](NC(=O)OC(C)(C)C)c1nnc(S(=O)(=O)Cc2c(F)cccc2Cl)o1
0.03	0.26	Cn1ncc(Br)c1C(=O)N1CCc2ccccc21
0.23	0.03	Cc1[nH][nH]c(=O)c1[C@@H](c1ccccc1[N+](=O)[O-])C(C#N)C#N

More entries
KCNQ2 pot baseline	KCNQ2 pot	SMILES
1	0.47	CCN(CC)c1ccc(C=NCCNS(=O)(=O)c2ccc(C)cc2)cc1
-0.19	0.24	COc1ccc(C(=O)Nc2ccccc2C(=O)NC(Cc2c[nH]c3ccccc23)C(=O)O)cc1 (configuration not stated)
-1.3	1	COc1ccc(-c2nc(N)n(C(=O)c3ccccc3Cl)n2)cc1
0.02	1.4	COc1cc(C(F)(F)F)c(C(=O)NCc2cccc(Cl)c2)cn1
-1.5	0.48	O=c1c(Cc2ccccc2)c(O)nc2n1CCS2
-0.75	0.32	O=C(Cn1ncn2c(cc3ccccc32)c1=O)NCCc1cccs1
0.49	1	CCC(C)(C)n1nnnc1C(C(C)C)N1CCC(C(N)=O)CC1 (configuration not stated)
-0.69	1.2	CCC(C)C(NC(=O)c1ccccc1NC(=O)c1ccc(C)cc1)C(=O)O (configuration not stated)
-0.58	0.4	COc1ccc(C(=O)NNC(=O)COc2ccc(Cl)cc2)c(OC)c1
-0.83	1.3	CCc1nnc(NC(=O)CSc2nnc(Cc3cc(=O)[nH]c(=O)[nH]3)n2-c2ccc(OC)cc2)s1
1.2	1.2	CCOc1ccc(NC(=O)c2ccccc2NC(=O)c2cccnc2)cc1
-0.95	0.12	Cc1ccc(-n2c(C(C)n3nc(C)c([N+](=O)[O-])c3C)n[nH]c2=S)cc1 (configuration not stated)
-1.2	0.8	CC(OC(=O)c1cc(-c2cccnc2)nc2ccccc12)C(=O)Nc1ccc2ccccc2c1 (configuration not stated)
-2.8	1.2	CCOC(=O)c1[nH]c(C)c(C(=O)NCCN2CCOCC2)c1C
-0.55	1.1	Cc1sc2nc(C)n(/N=C/c3ccccc3)c(=O)c2c1C
0.01	0.05	CC(=O)c1cccc(NC(=O)C(C)OC(=O)CCC2CCCCC2)c1 (configuration not stated)
3.6	0.3	COc1ccc(C(=O)NCc2ncccc2C)cc1OC1CCN(C(C)=O)CC1
3.2	1.6	CC(NC(=O)Cc1ccc(NS(=O)(=O)c2cccc(C(F)(F)F)c2)cc1)c1ccccn1 (configuration not stated)
-2.5	1.1	Cc1ccc(C(=O)n2cnnc2N)cc1C
-0.7	0.31	Cc1cc(=O)oc(C)c1C(=O)NCC1COc2ccccc2O1 (configuration not stated)

Whole records, looked up by structure.
O=C(Cn1ncn2c(cc3ccccc32)c1=O)NCCc1cccs1 across the screens: KCNQ2 pot baseline = -0.75; KCNQ2 pot = 0.32
O=c1c(Cc2ccccc2)c(O)nc2n1CCS2 across the screens: KCNQ2 pot baseline = -1.5; KCNQ2 pot = 0.48

Continued.
KCNQ2 pot baseline	KCNQ2 pot	SMILES
0.06	0.16	Nc1nc(-c2ccco2)nn1S(=O)(=O)c1ccc(Cl)cc1
1.1	2.8	CC1=C(C(=O)OCCOC(C)C)C(c2cccnc2)C2=C(CCCC2=O)N1 (configuration not stated)
0.76	0.88	O=C(Nc1ccc(Cl)cc1Cl)c1ccc(Br)o1
1.9	2.6	O=C(N/N=C/c1cccc2ccccc12)c1ccncc1
-1.1	0.2	COc1ccc(N2CC(O)=C(c3nc(C)cs3)C2=N)cc1
1.1	0.26	COc1cc(S(=O)(=O)NCC2COCCO2)ccc1-n1cnnn1 (configuration not stated)
-1.5	0.13	Cc1ccc(S(=O)(=O)N2CCOCC2)cc1NC(=O)COC(=O)c1ccc(OCc2c(C)noc2C)cc1
-0.02	0.87	O=C(O)CCSc1nnc(-c2cccnc2)n1-c1ccccc1
1.9	0.31	CC1CCN(c2ccc(/C=C(\C#N)c3nn(-c4ccccc4)c(N)c3C#N)cc2[N+](=O)[O-])CC1
-0.18	0.15	N#C/C(=C\c1ccc[nH]1)C(=O)Nc1ccccc1Cl
1.4	0.45	COc1ccc(-n2nc(C(=O)NCC(=O)NCCC3=CCCCC3)c3ccccc3c2=O)c(OC)c1
-0.72	0.02	O=C(Nc1ccc(F)cc1)N1CCCC(c2nc3c(nnn3Cc3ccccc3Cl)c(=O)[nH]2)C1 (configuration not stated)
0.11	0.36	O=C(CSc1nccc(=O)[nH]1)c1ccco1
-0.54	0.31	Cc1ccc(NC(=O)Cn2nnc3ccccc32)cc1
-0.08	0.59	O=c1cc(N/N=C/c2ccccc2)[nH]c(=O)[nH]1
-0.63	2.3	C=CCSc1ncccc1C(=O)NCc1ccccc1
0.49	0.51	CN(C)S(=O)(=O)c1ccc(NC(=O)C2CC(=O)N(Cc3ccccc3Cl)C2)cc1 (configuration not stated)
-1.2	1.1	CCCCN(CCCC)CCNC(=O)CN1C(=O)COc2ccc(S(=O)(=O)N3CCOCC3)cc21

These rows are one share of the data. The share of hits here may be higher or lower than overall.
